# Vif TR-FRET – inhibitors of Vif binding to APOBEC3G peptide, primary screen, biochemical, TR-FRET, GST-Vif 1-94, biotin-A3G peptide, dose response retest (AID 1117319) | inhibition, %; hits with a dose series show IC50 in µM | actives 0.57% (n = 260,000) | TR-FRET GST-Vif / biotin-A3G peptide binding; higher % means a stronger effect; test concentration not given here; strong numbers were not always called active;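 active = above the screen mean plus three standard deviations and confirmed in dose response; inconclusive = results disagree or hit not tested in dose response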;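 also: Vif residues 1-94 fused to GST binding biotinylated APOBEC3G peptide 110-148; 0% = full assay without inhibitor and 100% = GST in place of GST-Vif; retest series ran down from 100 µM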
# Bfl-1 A1 inh – caspase 3/7 activation in MEF A1-2A-BIM cells, primary screen, A1 inhibitor project, cell-based, luminescence, HTS | Caspase-Glo 3/7 luminescence, 3 h; percent of clofoctol response, vehicle zero | caspase activation, % (test concentration not listed) | actives 0.066% (n = 330,000);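 active = over half of replicate activation scores above 10%, or exactly half above 10 with the replicate mean above 10; inconclusive = replicate mean below 10 yet half the replicates above 10; inactive = over half of replicates below 10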;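 also: wells of about 30 µL received 50 nL stock; many hits fall short of the cut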
# LANA-H2B inh – blockers of LANA interaction with H2A/H2B – biochemical, FP readout, HTS, primary screen. cell-free LANA-H2A/H2B peptide, fluorescence polarization. inhibition, % (test concentration not listed). actives 0.6% (n = 320,000). AID 2629, 2010; in the data active = inhibition mostly above about 10%, no sharp cut-off; inactive = mostly below about 6.7%;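 also: stock transfer was 7.5 nL into about 10 µL; 0% = median of vehicle wells and 100% = median of positive control wells; one replicate is shown; the record names a cut of 25% in any replicate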
# UCH37 inh – inhibitors of human UCH37 deubiquitinase, primary screen, biochemical, Ub-AMC cleavage, fluorescence | actives 0.33% (n = 330,000) | inhibition, % (concentration not given with the values) | purified proteasome/UCH37 | Ubiquitin carboxyl-terminal hydrolase isozyme L5 (Homo sapiens), Q9Y5K5;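 active = mean of two replicates above 20%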;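 also: 0% = compound-free wells with enzyme and 100% = wells lacking proteasome; stock transfer was 100 nL into about 20 µL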
# Target sequence (Q9Y5K5 whole entry, looked up): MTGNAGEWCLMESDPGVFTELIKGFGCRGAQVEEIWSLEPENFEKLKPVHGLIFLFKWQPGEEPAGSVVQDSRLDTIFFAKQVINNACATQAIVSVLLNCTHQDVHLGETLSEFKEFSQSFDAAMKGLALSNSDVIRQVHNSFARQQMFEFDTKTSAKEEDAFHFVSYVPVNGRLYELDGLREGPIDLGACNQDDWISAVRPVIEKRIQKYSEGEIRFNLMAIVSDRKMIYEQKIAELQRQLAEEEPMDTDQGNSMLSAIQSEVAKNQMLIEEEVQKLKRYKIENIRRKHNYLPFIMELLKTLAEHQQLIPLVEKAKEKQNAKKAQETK
#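 system = Proteasome-associated human UCH37 deubiquitinase | amount = 0.15 nM proteasome as dispensed | medium = pH 7.4 Tris-HCl (50 mM) with ovalbumin, ATP-MgCl2, DTT | incubation = 30 min preincubation with enzyme, 25 min cleavage at room temperature | detection = AMC fluorescence 355/460 nm | read-out basis = percent inhibition | controls = no-proteasome and no-compound wells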
# HNF4A DNA FP – change in binding of human HNF4A to DNA, primary screen, biochemical, fluorescence polarization, FITC-DNA; Hepatocyte nuclear factor 4-alpha (Homo sapiens), P41235; 1 h; activity change, % at 10 µM; actives 0.3% (n = 360,000); AID 1224865, 2016; in the data active = activity change above about 30%, passing the limit was not always enough;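 also: controls were the assay level and a saturating level of protein; the project sought stronger binding though the title names inhibitors; some compounds called inactive have numbers as strong as hits; positive values seem to mean higher polarization but the record does not say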
# B2AR ag – beta2AR agonists driving receptor internalization, primary screen, cell-based, FAP fluorogen, flow cytometry. Am2.2-beta2AR cells; reference of the scale not given here. response, % (test concentration not listed). Beta-2 adrenergic receptor (Homo sapiens), P07550. actives 0.43% (n = 340,000). AID 504454, 2011;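 active = response above a set limit, near 3 SD of response in nonfluorescent compounds, cut at about 42% in these data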;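 also: stock transfer was 100 nL into about 11 µL; a reference agonist was the positive control; negative values mostly stem from fluorescent compounds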
# Target sequence (P07550 whole entry, looked up): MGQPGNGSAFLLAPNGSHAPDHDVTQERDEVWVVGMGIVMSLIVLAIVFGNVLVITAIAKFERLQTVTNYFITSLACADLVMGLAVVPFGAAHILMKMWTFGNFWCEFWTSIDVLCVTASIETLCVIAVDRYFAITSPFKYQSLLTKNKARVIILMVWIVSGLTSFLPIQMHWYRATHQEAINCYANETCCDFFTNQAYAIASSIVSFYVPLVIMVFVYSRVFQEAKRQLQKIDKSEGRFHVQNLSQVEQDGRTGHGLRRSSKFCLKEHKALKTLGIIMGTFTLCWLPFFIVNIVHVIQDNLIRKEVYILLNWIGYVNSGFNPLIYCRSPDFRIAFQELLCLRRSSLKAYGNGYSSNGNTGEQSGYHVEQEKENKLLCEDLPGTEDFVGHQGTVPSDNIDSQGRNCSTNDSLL
# E coli growth – E. coli growth inhibition, primary screen, OD600; OD600 absorbance (concentration not given with the values); actives 0.21% (n = 330,000); AID 1053175, 2014; Escherichia coli growth, 23 h; stronger effect = lower value;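 active = OD600 absorbance below the run mean of sample wells minus 3.6 SD, in any replicate, cut at about 0.56 in these data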;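 also: stock transfer was 300 nL into about 60 µL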
# Active calls of the source: *; i = inactive; ? = inconclusive; nt = not tested or not shown; & = joins results of further samples.
mol,Vif TR-FRET,Bfl-1 A1 inh,LANA-H2B inh,UCH37 inh,HNF4A DNA FP,B2AR ag,E coli growth
Cc1ccccc1Cn1nc(C)c(NC(=O)/C=C/c2cnn(C)c2)c1C,nt,0.9,-1.0,0.6,-2.3,-5.8,0.647
Fc1ccc(SCCc2ccncc2)cc1,0.0%&-3.5%,-0.1&-0.7,-4.9&-4.4,3.9&1.8,-2.2&-1.7,2.1&-0.7,0.732&0.642
COc1cccc(C=NNC(=O)C(C)SC(C)C(=O)NN=Cc2cccc(OC)c2)c1 (stereo not given),-7.9%,nt,nt,-14.7,1.4,8.1,0.676
COC(=O)c1sc(S(=O)(=O)N2CCCCC2C)c(C(=O)OC)c1C (stereo not given),3.9%,-0.2,-0.8,2.3,3.7,9.2,0.642
O=C(Nc1nc2c(F)cc(F)cc2s1)c1ccc([N+](=O)[O-])o1,nt,-4.5,4.1,5.8,-1.3,19.6,0.714
Cc1cc(N2CCOCC2)nc2ccccc12,-10.6%,0.1,2.9,-23.4,-0.3,-13.2,0.711
N#Cc1ccc(NC(=O)CSc2cn[nH]n2)cc1,nt,-0.4,10.9,-3.1,-2.7,19.8,0.684
NC(=O)c1nsc(C(=O)N(c2ccccc2F)C(C(=O)NCc2ccc(F)cc2)c2ccc(O)cc2)c1N (stereo not given),nt,0.1,-0.2,nt,3.0,7.2,nt
Cc1nsc(N)c1C(=O)O,3.5%,0.6,-2.3,1.7,1.1,9.1,0.655
CCC1(C)C2(C#N)C(N)=NC(OC)(OC)C12C#N (stereo not given),2.4%,0.9,-0.2,1.6,3.6,-1.0,0.762
COc1cccc(N2CCN(C(=O)c3cccn4c(=O)c5c(C)c(C)sc5nc34)CC2)c1,5.0%,-0.2,1.5,-70.0,9.6,6.2,0.669
O=C(c1cccc(S(=O)(=O)N2CCc3ccccc3C2)c1)N1CCN(c2ccc(O)cc2)CC1,?,0.7,1.2,0.2,-1.0,1.3,0.699
O=C(c1ccccc1)N(CCO)Cc1cc2cc3c(cc2[nH]c1=O)OCCO3,-7.6%,0.4,0.1,-107.2,-1.9,3.0,0.725
COc1ccccc1CCN1CCCC(CN(C)C(=O)CCC(=O)N(C)C)C1 (stereo not given),nt,1.0,4.8,1.5,-1.9,3.0,0.712
COc1cc2c(cc1OC)C(=O)CCC2,-1.9%,nt,nt,nt,-4.5,-5.6,nt
CCOC(=O)C1=C(CN2c3ccccc3CC2C)NC(=O)NC1c1ccccc1 (stereo not given),8.6%,1.5,-3.6,2.4,-2.3,40.1,0.685
O=C(COc1ccc(S(=O)(=O)N2CCCC2)cc1)NCCC1=CCCCC1,75.1µM*,-0.4,9.5,2.8,-0.2,-2.2,0.693
CCOc1ccc(N(C(=O)c2ccccc2Cl)C2=NC(C)(C)CS2)cc1,-11.3%,-0.1,-5.8,-0.2,9.1,7.8,0.708
C=CCNC(=O)c1onc(CSc2cc(C)cc(C)c2)c1C(=O)O,6.9%,0.4,-1.1,1.9,-3.0,-4.0,0.704
CCNC(=S)N1CCN(c2nc(CC)nc3sc4c(c23)CCCC4)CC1,-8.0%,-0.5,-2.5,5.1,-0.8,12.1,0.641
COc1ccc(/C(C)=N/NS(=O)(=O)c2cc(C)ccc2C)c(OC)c1,?,0.4,3.9,nt,-3.7,1.0,nt
COc1ccnc(Oc2ccccc2)c1C#N,-3.8%,-0.3,1.8,4.0,-2.7,4.4,0.669
O=C(Nc1nc(-c2cccs2)cs1)c1ccc(Cl)s1,-2.0%,-1.2,-3.0,-6.7,1.6,16.6,0.686
Cc1ccc(Cl)cc1NC(=O)c1ocnc1C,3.4%,-0.5,-0.7,2.4,0.5,-2.3,0.708
CN(c1ccc(OCC(=O)OCC(=O)Nc2c(F)c(F)c(F)c(F)c2F)cc1)S(=O)(=O)c1ccc(F)cc1,17.0%,0.3,-1.6,1.6,0.7,10.5,0.688

# The listing continues.
mol,Vif TR-FRET,Bfl-1 A1 inh,LANA-H2B inh,UCH37 inh,HNF4A DNA FP,B2AR ag,E coli growth
CN(Cc1cn(-c2ccccc2)nc1-c1ccc(F)cc1)C(=O)CCC(=O)O,-10.6%,-0.2,2.6,4.2,-4.1,-9.8,0.702
CCOC(=O)c1sc(C)nc1C1CCN(C(=O)OCC)CC1,-3.5%,0.3,1.0,-0.1,-3.1,6.3,0.657
COC(=O)C1=C(C(=O)OC)[C@@H]2Nc3ccccc3[C@@]23C[C@@H](C(=O)OC)N(C(=O)C2CCC2)C3=N1,nt,-0.8,1.1,1.9,-0.1,6.6,nt
CCCSC1=N/C(=C\c2ccc([N+](=O)[O-])o2)C(=O)S1,12.9µM*,nt,nt,3.5,-24.3,18.5,0.718
c1csc(-c2nn3c(C4COc5ccccc5O4)nnc3s2)c1 (stereo not given),-6.3%,0.3,1.3,0.5,2.7,-6.3,0.702
O=C(Cn1cnc2c(nnn2Cc2ccccc2)c1=O)c1ccccc1,-2.7%,0.4,-1.1,3.2,-1.4,8.0,0.752
COc1cc2c(cc1C1NC(=S)NC(C)=C1C(=O)N(C)C)CCCC2 (stereo not given),-1.8%,0.5,-2.5,3.3,-1.6,2.9,0.719
CC(=O)Nc1cc(-c2nn(C)c(=O)c3ccccc23)ccc1N1CCOCC1,-1.2%,0.0,-4.0,0.4,0.4,-7.0,0.68
Cc1cc(C)nc(N2CCN(C(=O)c3ccc(S(=O)(=O)N4CCCCCC4)cc3)CC2)n1,-13.9%,0.0,-0.2,-1.3,3.2,2.4,0.712
O=C(NCc1ccc(C(F)(F)F)cc1)C1CC(c2ccccc2[N+](=O)[O-])=NO1 (stereo not given),1.3%,1.0,1.3,1.2,3.6,-4.0,0.641
O=C(/C=C/c1ccc(Br)cc1)NC(=S)Nc1ccc(S(=O)(=O)Nc2nccs2)cc1,nt,-1.5,-1.0,8.2,-43.9,5.0,0.738
COC(CNC(=O)c1ccc2c(c1)ncn2-c1ccc(F)c(F)c1)OC,-4.9%,-0.3,2.4,4.3,0.6,10.8,0.68
FC(F)(F)c1cc(CO[C@@H]2CCCN[C@@H]2c2ccccc2)cc(C(F)(F)F)c1,nt,0.1,-1.9,4.0,-2.4,29.0,nt
COc1ccc(CNC(=O)C2CCC(CNc3c(N4CCC(C)CC4)c(=O)c3=O)CC2)cc1 (stereo not given),-4.5%,-0.2,8.8,4.9,0.3,-20.1,0.699
CCn1c(C(C)NC(=O)c2cccc(C)c2)nc2ccccc21 (stereo not given),-1.0%,0.2,1.8,4.6,-2.5,13.2,0.76
CC(C)c1ccc(-c2nnc(N)s2)cc1,0.0%,1.4,nt,0.5,-2.3,-7.1,0.686
COC(C[C@@H]1O[C@@H]1[C@H](O)[C@@H](C)OCc1ccccc1)OC,nt,-1.1,-7.0,1.9,-2.0,-5.6,nt
CCN1CCN(C(=O)C2CCN(c3nnc(C)c4c(C)n(-c5ccc(C)cc5)nc34)CC2)CC1,nt,0.7,0.2,-17.3,3.9,6.2,0.673
CCOc1ccccc1N1CCN(C(=O)C(F)(F)F)CC1,1.4%,0.3,0.2,0.2,1.8,0.4,0.742
Cc1[nH]n(-c2ccccc2)c(=O)c1/C=N/N1C(=O)c2cccc3cccc(c23)C1=O,-2.9%,-0.7,2.5,nt,-3.8,32.5,nt
Cc1ccccc1-c1nc(CS(=O)(=O)CC(=O)NCc2ccc3c(c2)OCO3)c(C)o1,6.7%,-0.3,-1.8,4.2,2.9,-8.2,0.743
CCOC1(OCC)N=C(N)C2(C#N)C(c3cccc(C)c3)C12C#N (stereo not given),2.2%,0.5,-4.8,3.8,-3.4,-6.0,0.724
O=C(CN1CCN(S(=O)(=O)c2ccccc2F)CC1)NCC1(N2CCOCC2)CCCCC1,9.3%,nt,nt,0.1,0.9,3.0,0.667
Cc1cccc(NCC(=O)NNC(=S)Nc2ccccc2)c1,5.0%,-0.3,-0.8,2.0,-2.0,-1.6,0.702
O=C1/C(=C/c2ccco2)Oc2c1ccc(O)c2CN1CCCCC1,1.36µM*,0.1,2.1,-2.0,-24.6,-6.8,nt

# Next part:
mol,Vif TR-FRET,Bfl-1 A1 inh,LANA-H2B inh,UCH37 inh,HNF4A DNA FP,B2AR ag,E coli growth
O=C(NCCNc1ccc(Cl)cc1[N+](=O)[O-])c1ccccc1F,nt,-0.8,-5.3,1.6,-0.6,6.8,0.674
Cc1ccc(-n2c(SCC(=O)N3CCCCC3)nc(O)cc2=O)cc1,8.6%,0.6,-2.1,6.6,5.8,-4.8,0.701
COc1cc([C@@H]2[C@H]3CNCC=C3C(C#N)=C(N)C2(C#N)C#N)ccc1OC(C)C,?,0.5,-4.7,1.7,48.1*,0.1,0.793
O=C(Nc1c(F)cccc1F)c1ccc(-n2cncn2)nc1,-6.3%,0.2,4.0,-1.0,-2.2,-4.4,0.75
CC1(C)CC2CC(C)(CN2C(=O)Cc2ccccc2)C1 (stereo not given),-6.6%,-0.5,3.3,1.4,1.2,0.7,0.672
O=c1nc(N2CCOCC2)ccn1-c1nc(-c2ccccc2)oc1-c1ccccc1,-4.8%,0.7,-4.8,-1.4,-1.8,-0.5,0.709
Cc1c(/C=C/C(=O)c2ccccc2)cnn1C,26.5%,-1.5,2.9,0.3,4.1,-4.4,0.669
CCOC(=O)CCc1c(C)n(CC)c2ncnn2c1=O,6.8%,-0.1,-1.1,1.8,-0.4,3.5,0.704
CC(C)CNC(C(=O)Nc1ccc([N+](=O)[O-])cc1Br)c1ccccc1 (stereo not given),nt,0.3,-241.2,2.3,-0.1,0.0,0.689
CCc1n[nH]c(=S)n1/N=C/c1c(C)nn(-c2ccccc2)c1Cl,-17.2%,-0.4,-1.4,nt,-2.4,-8.8,nt
Cc1cc(=O)[nH]c(N/N=C/c2c(C)nn(-c3ccccc3)c2C)n1,22.9%,-0.1,1.4,nt,2.2,-11.2,nt
Cc1onc(-c2ccccc2)c1CNC(=O)Nc1ccccc1,-10.6%,1.9,-13.6,5.3,-8.4,-7.5,0.714
CCCCC1C(=O)NN(c2ccccc2)C1=O (stereo not given),-5.7%,nt,nt,0.7,-0.5,-1.8,0.69
CCC(=O)N=c1sc2cc(F)cc(F)c2n1C,nt,0.9,1.0,2.7,-1.6,-7.8,0.71
CCCCN(Cc1ccccc1)S(=O)(=O)c1cc2c(cc1Br)CC(C)N2C(C)=O (stereo not given),-4.7%,nt,nt,nt,-5.2,2.3,nt
CCn1cc(CN2CCC(C(=O)Nc3ccc(Oc4ccccc4F)cc3)CC2)c(C)n1,nt,1.6,-6.1,4.6,9.3,-0.2,0.679
Cc1ccc(Sc2c(C)[nH]n(C(C)(C)C)c2=O)cc1,29.1%,-0.1,-7.3,0.5,4.0,4.7,0.654
c1ccc(N2N=C(c3cccs3)CC2c2ccco2)cc1 (stereo not given),7.8%,-1.3,-4.2,i,-0.1,31.8,0.759
CC(C)CCNC(=O)CN(CCN1CCOCC1)C(=O)Cn1nnc(-c2ccc(F)cc2)n1,2.7%&-0.9%,0.1,-26.3,4.0,0.6,5.8,0.7
CC1=C(C(=O)OCc2ccccc2)C(c2ccc([N+](=O)[O-])cc2)NC(=O)N1CCCCCC(=O)O (stereo not given),?,0.9,4.1,3.0,0.4,0.6,0.639

# Screens: PubChem, several laboratories
